Rango dissoc inh: prevents RanGTP from dissociating the Rango-importin beta complex; Biochemical FRET Rango-importin beta, RanGTP-induced dissociation; Potency, µM (top dose mostly 46.1 µM), for the others: at the highest dose activity change, negative = inhibition; 0.071% of 340,000 active; O95149+P62826; AID 540253; active means falling FRET ratio curve, often poorly fitted, with flat reads before Ran was added; inconclusive means other falling curves, or compound fluorescence or quenching; inactive means flat or rising ratio curve;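 further: potency means the concentration at half of the fitted maximal effect; % of control where 0% means no effect; nearly all actives have a fitted effect of over 45% in size; -100% = wells without RanGTP and RCC1; the record marks most hits as doubtful in a second field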
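Rango FRET biosensor (snurportin-1 IBB flanked by N-terminal EYFP and C-terminal CFP10) at 0.1 uM, with 0.25 uM importin beta in PBS, 1mM DTT, 0.02% Tween-20, 0.1% BSA. 0.6 uM Ran, 2mM GTP and 0.2 uM RCC1 were then added for 45 min at room temperature. Inhibition read as loss of FRET rise.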
Rango complex inh: prevents formation of the Rango-importin beta complex; Rango CFP/YFP FRET sensor + importin beta, 45 min; Potency, µM (titrated, usually from 92.2 µM), for the others: top-dose inhibition of complex formation; 0.031% of 340,000 active; Q14974; AID 540263; active = rising FRET ratio curve, often small or poorly fitted; inconclusive = mostly compound fluorescence or quenching in the first reads; inactive = flat curves in all reads;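 further: potency means the concentration at half of the fitted maximal effect; 0% = DMSO wells and 100% = buffer wells lacking importin beta; nearly all actives have a fitted effect of over 15% in size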
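FRET biosensor Rango (snurportin 1 IBB between N-terminal EYFP and C-terminal Cerulean), 50 nM in PBS/1 mM DTT/0.02% Tween-20/0.1% BSA, preincubated 5 min RT with compound; 0.125 microM importin beta added, 45 min RT, CFP/YFP FRET ratio read.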
GLA inh pH 4.5: blocks human alpha-galactosidase A at pH 4.5; P06280; purified enzyme, 4-MU-alpha-Gal fluorescence, pH 4.5; activity change, negative = inhibition, % at 105 µM; 230,000 tested, under 10 active; inconclusive = small, poorly fitted or top-dose-only inhibition, or a rising curve; inactive = flat fitted curve, though single readings scatter; no compound was filed as active;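 further: 0% = full activity with enzyme and -100% = basal without enzyme; dose as in the result columns while the protocol names 77 µM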
Target sequence (P06280 whole entry, looked up): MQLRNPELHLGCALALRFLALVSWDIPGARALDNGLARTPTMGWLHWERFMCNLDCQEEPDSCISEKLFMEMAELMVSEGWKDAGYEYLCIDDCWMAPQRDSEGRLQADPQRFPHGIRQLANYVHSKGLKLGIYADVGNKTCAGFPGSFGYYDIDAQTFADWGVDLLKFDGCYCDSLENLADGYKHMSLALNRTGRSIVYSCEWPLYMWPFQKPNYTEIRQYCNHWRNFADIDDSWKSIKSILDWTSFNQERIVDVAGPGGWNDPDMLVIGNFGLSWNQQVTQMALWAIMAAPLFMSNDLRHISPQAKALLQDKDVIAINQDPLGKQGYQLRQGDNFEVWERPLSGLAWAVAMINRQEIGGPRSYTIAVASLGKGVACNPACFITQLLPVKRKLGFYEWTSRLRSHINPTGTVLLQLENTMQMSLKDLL
miR-21 FLuc: raises the signal of a miR-21 reporter | HeLa miR-21 FLuc reporter, luciferase, 48 h | Potency, µM (highest dose often 38.3 µM), without a hit: at the highest dose reporter change, positive = more light | 340,000 tested, under 10 active; active = well fitted rising curve with a large enough effect; inconclusive = small, poorly fitted or top-dose-only effect; inactive = no such curve, though single readings can be large or run the other way;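 further: % of control where 0% means no effect; miR-21 action dims this reporter so a rising signal means less miR-21 action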
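HeLa cells stably expressing CMV-driven firefly luciferase with a downstream miR-21 binding sequence, endogenously expressing miR-21, were treated with titrations (up to about 40uM final) for 48 hours at 37 degree Celsius. Luciferase luminescence was read after lysis.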
Numbers without * were called inactive; ? = inconclusive; · = no result given. Not all compounds are listed (hit frequency here may not be typical).

Results follow in this order: Rango dissoc inh, Rango complex inh, GLA inh pH 4.5, miR-21 FLuc
CC(C)C[C@H](NC(=O)c1nc[nH]c1C(=O)N[C@@H](CCCCNC(=O)OC(C)(C)C)C(=O)OC(C)(C)C)C(=O)OC(C)(C)C
    25%, -0.9%, ?, 13%
CC(C)C(=O)N=C1SC2CS(=O)(=O)CC2N1Cc1ccccc1 (stereo unspecified)
    -10%, 1.1%, -1, 0%
O=C(NCCN1CCOCC1)c1ccc(Cl)c(S(=O)(=O)N2CCCC2)c1
    -1%, 0.9%, ·, 2%
C/C(CC(=O)Nc1ccc(OCc2ccccc2)cc1)=N\NC(=O)C(=O)Nc1ccccc1C
    4%, ?, -6, -24%
COc1ccc(-n2nc(C(=O)NCC3CCCO3)c3ccccc3c2=O)cc1 (stereo unspecified)
    -4%, 0.2%, ·, -1%
CC(=O)c1ccc(NC(=O)C(C)N(C)CC(=O)Nc2ccccc2Cl)cc1 (stereo unspecified)
    0%, 2.5%, 6, -3%
COc1ccccc1/C=C/C=N/NC(=O)c1cnccn1
    -5%, 0.2%, 3, -28%
CCOc1ccc(CO[C@@H]2O[C@H](CO)[C@@H](O)[C@H](O)[C@H]2NC(C)=O)cc1OC
    7%, -0.6%, ·, 0%
O=C(NCCCn1ccnc1)c1ccccc1Cl
    4%, -2.9%, ·, -2%
COC(=O)C1=C(C)N(C2CCCCC2)C(=O)/C1=C\c1cccs1
    -1%, -1.0%, -9, -4%
N#Cc1ccc(NC(=O)COC(=O)CCNS(=O)(=O)c2ccccc2)cc1
    3%, 0.8%, -2, -4%
Cc1cc(C)c(NC(=O)COC(=O)C2CCC(=O)N2)c(C)c1 (stereo unspecified)
    16%, ?, 12, -5%
CCOC1CCCC(n2cnc3c(=S)nc[nH]c32)O1 (stereo unspecified)
    4%, 0.8%, ·, ·
Cc1ccc(C(C(=O)NC2CCCC2)N(Cc2cccs2)C(=O)c2csnn2)o1 (stereo unspecified)
    -3%, 2.7%, ·, ·
C[C@@H]1C=C(C(=O)O)O[C@H](OCc2ccc(CO)cc2)C1
    -16%, 0.5%, 6, 1%
Cc1ccc2c(C)nc(Nc3ncc4c(n3)CCCC4=O)nc2c1
    -9%, -0.4%, ·, ·
CC(=O)Nc1cccc(-n2nnc(SCC(N)=O)n2)c1
    -11%, -0.9%, 0, -2%
c1ccc2[nH]c(SCc3ccc(-c4nnco4)cc3)nc2c1
    28%, 0.4%, -6, -53%
CC(=O)c1ccc(S(=O)(=O)N(CCCO)Cc2cc3cc4c(cc3[nH]c2=O)OCCO4)cc1
    1%, -0.2%, ·, -6%
CSc1nc(N)nc2c1ncn2C1OC(CO)C(O)C1O (stereo unspecified)
    12%, -0.7%, ·, ·
CC(=O)c1ccc(NC(=O)CN2C(=O)NC3(CCCc4ccccc43)C2=O)cc1 (stereo unspecified)
    -8%, 1.3%, ·, ·
CCSc1nc(-c2ccc(OC)cc2)n(-c2nc3ccccc3s2)n1
    20%, -2.6%, 0, -15%
Brc1ccc2c(c1)CNc1c(ncnc1N1CCOCC1)O2
    12%, -3.1%, 0, 7%
O=Cc1ccc2noc(-c3ccc(F)cc3)c2c1
    ?, ?, -5, -13%
Cc1cc2oc(C(=O)Nc3ccc(S(=O)(=O)Nc4ncccn4)cc3)c(C)c2cc1Cl
    -1%, 0.3%, ·, 0%
CCOC(=O)Nc1ccc(S(=O)(=O)N2CCC(C)CC2)cc1
    5%, -1.0%, 1, 16%
CSc1ccc(-c2nc(CSCC(=O)N3CCOCC3)c(C)o2)cc1
    -1%, 0.4%, 3, 3%
Cc1ccc(N(CC(=O)NCc2ccc3c(c2)OCO3)C(=O)c2csnn2)cc1
    1%, -0.2%, ·, -17%
CCC(CC)C(=O)NCc1ccccc1OC
    5%, -1.5%, 16, -6%
CC(O)c1cccc(NC(=O)Cc2cccc3ccccc23)c1 (stereo unspecified)
    ·, ·, -27, 10%

Another view of 2 compounds above.
Rango dissoc inh	Rango complex inh	GLA inh pH 4.5	miR-21 FLuc	SMILES
7%	-0.6%	·	0%	CCOc1ccc(CO[C@@H]2O[C@H](CO)[C@@H](O)[C@H](O)[C@H]2NC(C)=O)cc1OC
4%	-2.9%	·	-2%	O=C(NCCCn1ccnc1)c1ccccc1Cl

(cont.)
Results follow in this order: Rango dissoc inh, Rango complex inh, GLA inh pH 4.5, miR-21 FLuc
CC(SC(C)C(=O)NN=Cc1cccc(Cl)c1)C(=O)NN=Cc1cccc(Cl)c1 (stereo unspecified)
    -20%, -0.1%, ·, ·
CCc1ccc(Nc2nnc(SCn3nnc4ccccc4c3=O)s2)cc1
    6%, -2.3%, -4, -10%
Cc1cnc(C(=O)Nc2nnc(C(C)C)s2)cn1
    -16%, 1.4%, -2, -42%
C#CCOCCOCCOCCNc1nc(N2CCN(C(=O)[C@H](CCCCN)n3cc([C@@H](N)CO)nn3)CC2)nc(N2CCN(C(=O)[C@H](CCCCN)n3cc([C@@H](N)CC(C)C)nn3)CC2)n1
    1%, -0.1%, ·, ·
O=C(CN1CCCCC1)N=Nc1c(O)[nH]c2ccccc12
    0%, 0.4%, 3, 1%
Cc1cccc(-n2ncc3c(NC4CCCCC4)ncnc32)c1
    -6%, -2.5%, -1, -61%
NC(=O)CSc1oc(-c2ccco2)nc1S(=O)(=O)c1ccccc1
    -9%, 2.4%, ·, 1%
Cc1sc2nc(C3CC3)nc(SCC(=O)N3c4ccccc4CC3C)c2c1C (stereo unspecified)
    -4%, -0.4%, -2, -4%
N#Cc1cnc(SCC(=O)N2CCCC2)nc1N
    2%, 0.7%, ·, 4%
COc1ccc(NC(=O)c2ccccc2Sc2ccc(NC(C)=O)nc2)cc1
    0%, 3.1%, 1, -10%
COc1ccc(CNC(=O)CSCc2cccc(Cl)c2)cc1
    3%, 1.9%, -3, -5%
Cc1cccc(Cn2nnc3c2C(=O)c2ccccc2C3=O)c1
    -5%, 2.4%, -12, 29%
Cc1ccc(N2CC(C(=O)Nc3ccc(S(=O)(=O)NCC4CCCO4)cc3)CC2=O)cc1C (stereo unspecified)
    8%, -2.8%, ·, 0%
Cc1nc(SC(C)C(=O)NC2CCCC2)c2ccccc2n1 (stereo unspecified)
    1%, ?, ·, ·
COc1cccc(OCC(=O)NCC2CCCO2)c1 (stereo unspecified)
    11%, -0.8%, ·, ·
COc1cc(/C=N/NC(=O)c2cncc(Br)c2)ccc1OC(=O)c1ccc2c(c1)OCO2
    ·, ·, 5, -5%
COCCn1c(SCC(=O)N2CCOCC2)nnc1-c1ccncc1
    -5%, -2.5%, ·, 0%
O=C(Nc1ccccn1)c1ccc(Cl)c([N+](=O)[O-])c1
    19%, -0.6%, 4, -19%
Cc1ccsc1/C=N/N1CCOCC1
    1%, 1.0%, 2, -7%
O=C(c1cc(Cl)nc2ccccc12)N1CCCCC1
    -4%, 6.0%, 14, -8%
COc1cccc(-n2nnc3c(=O)n(Cc4ccccc4Cl)cnc32)c1
    -17%, -5.5%, -6, -16%
Cc1ccc(-n2nc3c(c2NC(=O)c2cc4ccccc4o2)CS(=O)(=O)C3)cc1
    -3%, 6.2%, ·, 4%
CC(C)N1C(=O)C2C(C(=O)NC3CCCCC3)C3C=CC2(O3)C1C(=O)NC1CCCC1 (stereo unspecified)
    -20%, -0.3%, -10, 0%
O=C(O)CN(c1ccccc1)C1SC(=O)NC1=O (stereo unspecified)
    1%, -1.6%, 9, -2%
CCOC(=O)c1c(C)[nH]c(C)c1S(=O)(=O)N1CCC(c2ccccc2)C1 (stereo unspecified)
    -3%, -0.8%, ·, -10%
Cc1cccc(/C=N/NC(=O)c2ccc(NC(=O)c3ccccc3C)cc2)n1
    -16%, ?, ·, 0%
O=C(/C=C/c1ccc2c(c1)OCO2)N1CCCCC1
    3%, 1.7%, ·, -58%
Cc1ccc(Cn2cccc2/C=C2/C(=N)N3C=CSC3=NC2=O)cc1
    ?, ?, 1, -22%
Cc1sc2ncn(CC(=O)NCCCN3CC(C)CC(C)C3)c(=O)c2c1S(=O)(=O)N1CC(C)CC(C)C1 (stereo unspecified)
    -2%, ?, ·, 6%
CCCCN1CCN=C1N(C)C
    -9%, -6.5%, ·, ·
O=C(COC(=O)c1cc2ccccc2cc1O)Nc1ccccc1F
    17%, 1.7%, ·, ·
O=C(NCC1(c2ccccc2)CCOCC1)c1cccs1
    -1%, 1.0%, 1, -3%
O=C(O)c1c(N2CCCCC2)ccc([N+](=O)[O-])c1N1CCCCC1
    -6%, -1.3%, -6, -1%
CCOC(=O)c1[nH]c(COC(=O)C2CC(=O)N(Cc3ccccc3)C2)c(C(=O)OCC)c1C (stereo unspecified)
    5%, 0.0%, -13, -8%
COc1ccc(OCC(=O)N/N=C/c2ccc(O[C@@H]3O[C@H](CO)[C@@H](O)[C@H](O)[C@H]3O)cc2)cc1
    1%, -0.2%, 11, 5%
Cc1ccc(/C=C2\CC(C)CC3=C2NC(=S)NC3c2ccc(C)cc2)cc1 (stereo unspecified)
    -7%, -3.1%, 3, -2%
Cc1c(CN2CCCC(CO)(Cc3cccc(Cl)c3)C2)cnn1C (stereo unspecified)
    15%, -1.1%, 1, 0%
Cc1noc(C)c1COc1ccc(C(=O)OCC(=O)N2CC(=O)Nc3ccccc32)cc1
    5%, 8.5%, -9, -5%
COC(=O)c1ccc(NC(=S)NCCC2=CCCCC2)cc1
    -10%, 1.3%, 4, -7%
Cn1c(=O)cc(OCC(=O)NCc2ccccn2)c2ccccc21
    0%, -1.1%, 6, 2%
CCCn1c(COc2ccc(C(=O)O)cc2)nc2ccccc21
    32%, 6.1%, ·, -4%
O=C(CNS(=O)(=O)c1ccccc1)OCC(=O)c1ccc(Br)cc1
    -6%, -0.8%, ·, 0%
CC(NC(=O)COC(=O)CCN1C(=O)C2CC=CCC2C1=O)c1ccc(Br)cc1 (stereo unspecified)
    2%, 0.8%, ·, ·
COc1ccc(NC(=O)NN2CCN(C)CC2)cc1OC
    -6%, -0.3%, ·, -37%
COc1ccc(-n2nc3c(=O)[nH][nH]c3cc2=O)cc1
    -6%, 4.2%, 1, 5%
CCCNC(=O)CN1C(=O)NC2(CCCc3cc(OC)ccc32)C1=O (stereo unspecified)
    -3%, 3.6%, -4, -2%
O=C(CN1CCCC1)Nc1sc2c(c1C(=O)Nc1ccc(Br)cc1)CCC2
    2%, 0.2%, ·, -5%
CCN1c2ccccc2S(=O)(=O)c2ccccc21
    9%, 1.1%, ·, -3%
CC1CCCC(NC(=O)c2cn(C)c3ccc(S(=O)(=O)N4CCCC4)cc3c2=O)C1C (stereo unspecified)
    ·, ·, -9, -6%
NC(=O)c1ccc(OCC(F)(F)C(F)(F)C(F)(F)C(F)(F)C(F)(F)C(F)F)cc1
    -17%, 4.0%, -2, -4%
COc1ccc2nc(NC(=O)CSc3nc(C)cc(C)n3)sc2c1
    2%, -4.1%, 1, 0%
CCS(=O)(=O)c1ccc2oc(SCC(=O)c3ccco3)nc2c1
    -2%, -0.9%, 5, -5%
CSc1ncnc2[nH]ncc12
    1%, 1.3%, ·, ·
Clc1ccc(C2=NN(c3ccccc3)C(c3ccco3)C2)cc1 (stereo unspecified)
    ?, ?, ?, -42%
Cc1cccc(N2CCN(S(=O)(=O)c3ccc4[nH]c(=O)ccc4c3)CC2)c1C
    1%, -5.2%, ·, 6%

4 entries already listed, arranged by molar mass, rising:
Results follow in this order: Rango dissoc inh, Rango complex inh, GLA inh pH 4.5, miR-21 FLuc
Clc1ccc(C2=NN(c3ccccc3)C(c3ccco3)C2)cc1 (stereo unspecified)
    ?, ?, ?, -42%
Cc1c(CN2CCCC(CO)(Cc3cccc(Cl)c3)C2)cnn1C (stereo unspecified)
    15%, -1.1%, 1, 0%
O=C(CN1CCCC1)Nc1sc2c(c1C(=O)Nc1ccc(Br)cc1)CCC2
    2%, 0.2%, ·, -5%
COc1ccc(OCC(=O)N/N=C/c2ccc(O[C@@H]3O[C@H](CO)[C@@H](O)[C@H](O)[C@H]3O)cc2)cc1
    1%, -0.2%, 11, 5%

Screening results (PubChem BioAssay)
